Compound activity: PubChem BioAssay, National Center for Advancing Translational Sciences (NCATS)
gsp ag – activates gsp, the McCune-Albright syndrome mutation | gsp mutant cells, cAMP HTRF, 30 min; control for the full effect not named in the record | Potency, µM (highest dose often 76.9 µM), inactives show top-dose activation (cAMP increase), usual class: activators | hit rate 0.13% among 340,000; active = well fitted activation curve with a large enough effect; inconclusive = small, poorly fitted or top-dose-only effect, or another doubt; inactive = no such curve, though single readings can be large or run the other way; cell line not stated here;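 also: phosphodiesterase inhibitor Ro 20-1724 added with compounds to block cAMP breakdown; potency is read from the fitted curve at half-maximal effect; nearly all actives have a fitted effect of over 60% in size; about a fifth of the inactives were tested at one dose only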
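Cells stably selected in G418 were plated at 2000/well, grown 16-24 hr, then given compounds in DMSO with the PDE inhibitor […] (300 uM solution added) for 30 min at 37C; cAMP was read by HTRF.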
ClpP mod – qHTS Assay for Activators of ClpP. ATP-dependent Clp protease proteolytic subunit (Bacillus subtilis (strain 168)), P80244. purified B. subtilis ClpP, FRET peptide cleavage, 20 min. Potency, µM (series often up to 57.5 µM), inactives show at the top dose activity change, negative = active. hit rate 1.9% among 340,000. AID 651965, 2013; active = well fitted falling curve with a large enough effect; inconclusive = small, poorly fitted or top-dose-only effect; inactive = no such curve, though single readings can be large or run the other way; also: potency is read from the fitted curve at half-maximal effect; the source files actives as falling curves though it sought activators and does not explain the sign; nearly all actives have a fitted effect of over 65% in size; many hits overshoot -100%
Target sequence (P80244 whole entry, looked up): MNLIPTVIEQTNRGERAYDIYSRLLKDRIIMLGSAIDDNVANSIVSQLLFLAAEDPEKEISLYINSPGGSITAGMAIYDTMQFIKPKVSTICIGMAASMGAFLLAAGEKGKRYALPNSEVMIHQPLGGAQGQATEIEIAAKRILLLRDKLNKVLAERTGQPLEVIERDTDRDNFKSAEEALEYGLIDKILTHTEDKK
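ClpP 10 microg/mL final, pH 8 Tris/KCl buffer with BSA, glycerol, Tween-20; compound pinned in; FRET-FV substrate; RT 20 min; Ex320/Em430; ΔFRET vs ADEP 5.8 microM, DMSO, no enzyme.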
TRPML1 inh – human mucolipin-1 channel inhibition; Q9GZU1; TRPML1-inducible cells, Ca2+ dye fluorescence, FDSS; active compounds read low; inhibition of EC80 agonist-evoked calcium signal; activity change, negative = inhibition, % (test concentration not listed); hit rate 0.02% among 390,000; AID 624415; in the data active means activity change below about -50%; inconclusive means about -30% to -50%; inactive means above about -30%;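 also: stimulus is agonist 54-4 at its EC80 concentration; % is scaled to controls: 0 for no effect and ±100 for the full control effect; compound concentration not given in the record; the text of the record puts the active cut at -80%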
Target sequence (Q9GZU1 whole entry, looked up): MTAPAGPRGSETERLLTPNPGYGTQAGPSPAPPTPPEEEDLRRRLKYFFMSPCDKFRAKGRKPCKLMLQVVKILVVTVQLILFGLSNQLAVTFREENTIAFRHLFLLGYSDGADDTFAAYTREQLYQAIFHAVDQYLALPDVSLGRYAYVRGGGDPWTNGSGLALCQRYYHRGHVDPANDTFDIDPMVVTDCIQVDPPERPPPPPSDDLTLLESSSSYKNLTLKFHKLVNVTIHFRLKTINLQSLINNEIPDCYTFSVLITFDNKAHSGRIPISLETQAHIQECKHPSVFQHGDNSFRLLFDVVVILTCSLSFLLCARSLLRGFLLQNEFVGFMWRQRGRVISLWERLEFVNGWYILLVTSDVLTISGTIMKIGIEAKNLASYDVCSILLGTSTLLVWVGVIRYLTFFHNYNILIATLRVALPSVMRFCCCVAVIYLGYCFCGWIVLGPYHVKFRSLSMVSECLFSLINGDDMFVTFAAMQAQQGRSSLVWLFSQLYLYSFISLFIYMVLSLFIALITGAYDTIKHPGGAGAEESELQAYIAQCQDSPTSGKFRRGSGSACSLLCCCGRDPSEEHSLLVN
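TRPML1-DL cells, Tet-induced overnight (~16 h, 37 °C) at 1,500 cells/well, were loaded with Ca8 no-wash dye plus quencher for 45-90 min at room temperature. Compounds were pinned during FDSS kinetic reading; agonist 54-4 at EC80 (4 uM final) then added.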
TRPML1 ag – agonists of human TRPML1 channel. activation, % (concentration not given with the values). Q9GZU1. hit rate 0.12% among 410,000. TRPML1-expressing cells, Ca2+ dye fluorescence, FDSS; host cell line not named in the record; reference of the full effect not given here; in the data active = activation above about 50%; inconclusive = about 30% to 50%; inactive = below about 30%; also: 0% is about no effect; the text of the record puts the active cut at 80%
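Cells: TRPML1-DL, 1X Tet inducer, ~16 h at 37 degrees C/5% CO2. Dye: ABD Ca8 no-wash + quencher, 45-90 min RT. Read: 10 s baseline, compound add, 110 s agonist phase; 54-4 EC80 (4uM final), 110 s antagonist phase.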
Menin-MLL FL inh – menin-MLL binding inhibition, fluorescein peptide | FP activity change, % at 61.4 µM | Fluorescence polarization, fluorescein-MLL peptide displacement from menin | AID 1766 | 290,000 tested, under 10 active; inconclusive = falling polarisation curve, or a change in total fluorescence; inactive = total fluorescence flat and polarisation flat or rising; no compound was filed as active; the % refers to the polarisation; negative = inhibition;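 also: % of control where 0% means no effect; inhibitors lower the polarisation; unlabelled MLL peptide was the positive control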
gsp antagonist – antagonizes gsp, the McCune-Albright syndrome mutation | gsp-mutant cells, cAMP HTRF, 30 min; control for the full effect not named in the record | Potency, µM (highest dose often 76.9 µM), for inactives: top-dose activity change, negative = inhibition, hits mostly inhibitors | hit rate 0.4% among 340,000 | AID 624288; active = falling curve of any shape with a large fitted effect; inconclusive = falling curve, mostly with a smaller effect; inactive = flat or rising curve; cell line not stated here;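 also: intracellular cAMP measured with PDE inhibitor Ro 20-1724 present during compound exposure; potency is read from the fitted curve at half-maximal effect; % is scaled to controls: 0 for no effect and ±100 for the full control effect; nearly all actives have a fitted effect of over 65% in size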
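G418-selected cells were plated in DMEM/10% FBS for 16-24 h at 37C, then treated with compounds plus the PDE inhibitor […] (300 uM solution added) for 30 min at 37C. Intracellular cAMP was measured by HTRF after 30 min lysis at room temperature.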
Active calls of the source: *; ? = inconclusive; · = no result given; [ ] = dose if it differs, or a comment.

SMILES	gsp ag	ClpP mod	TRPML1 inh	TRPML1 ag	Menin-MLL FL inh	gsp antagonist
Cc1cc(C)cc(OC(=O)CCN2C(=O)c3ccccc3C2=O)c1	-4%	-1.2%	2	-0.7	1.6	-3%
CCOc1ccccc1NC(=S)N1CCCc2ccccc21	29%	-2.6%	16	-0.2	-1.2	-8%
CCOC(=O)c1[nH]c2ccccc2c1N=CN(C)C	23%	-18%	15	0.0	·	-1%
CN(C)S(=O)(=O)N(CC(=O)NCCSCc1c(F)cccc1Cl)c1ccccc1	·	-1.0%	-11	2.2	·	·
COc1ccc(CCNC(=O)C(=O)Nc2ccc(C)c(C)c2)cc1	·	-0.3%	-8	-0.4	·	·
Cc1ccc(S(=O)(=O)NCC(=O)OCC(=O)Nc2cccc(S(=O)(=O)N3CCOCC3)c2)cc1	8%	-0.8%	-5	-0.1	·	-6%
COCC(=O)N(C)C[C@H]1Oc2cc(Br)ccc2S(=O)(=O)N([C@H](C)CO)C[C@H]1C	2%	1.9%	8	-0.3	·	·
N#C/C(=C\c1cn(Cc2ccccc2)c2ccccc12)C(=O)NCc1ccco1	0%	1.4%	-5	3.4	3.4	11%
CCCC(=O)Nc1nn(CCC)c2nc3ccccc3cc12	12%	-2.5%	-21	2.7	-9.2	6%
COc1ccccc1NS(=O)(=O)c1cc(NC(=O)c2ccc(Cl)nc2)ccc1Cl	1%[15.4 µM]	-14%	6	-0.3	-2.7	32µM*
Cc1cc(C)n(CCC(=O)N/N=C/c2ccc(Cl)c([N+](=O)[O-])c2)n1	8%	·	-8	-0.3	?	-15%
O=C(OCC(=O)N(Cc1ccccc1)Cc1ccccc1)c1ccccc1NCCO	23%[15.4 µM]	·	-1	0.8	·	-21%
O=c1[nH]c(CSc2nc(-c3ccccc3)cs2)nc2ccccc12	-4%[15.4 µM]	0.5%	-17	3.8	3.7	-17%
C=CCNC(=O)c1c(Cl)cccc1Cl	?	-0.2%	3	-0.5	-0.4	-1%
Cc1ccc(C)c(NS(=O)(=O)c2ccc(-c3ccc(=O)[nH]n3)o2)c1	24%	-2.3%	15	-0.4	2.3	4%
O=C(CCC(=O)c1ccc(Cl)cc1)OCn1nnc2ccccc2c1=O	-40%[inhibitor]	0.2%	-4	0.4	·	1%
CCN(CC)c1ccc(C(=O)OCC(=O)N2CCN(c3ccccc3)CC2)cc1	-9%	7.5%	-1	0.9	-4.0	2%
COc1cc(S(=O)(=O)N2CCN(C)CC2)c(OC)cc1Cl	-1%	0.2%	13	2.2	0.5	7%
CCOc1ccc(OCc2ccc(C(=O)N3CCCC(C)C3)cc2)cc1 (centres undefined)	-18%	-1.5%	30	5.0	-1.2	-21%
Cc1ccccc1-n1cnnc1SCC(=O)N1CCN(c2ccccc2)CC1	-45%[inhibitor]	7.6%	12	0.3	-1.6	-1%
C/C(=N\NC(=O)COc1ccc(C#N)cc1)c1ccccc1OC(F)F	1%[15.4 µM]	-1.0%	-16	-0.5	7.0	-3%
CNC(=O)[C@@H]1CCC(=O)N1	·	-2.8%	-5	-0.2	·	-1%
CNC(=O)CSc1nnc(-c2ccc(S(=O)(=O)N3CCCC3)cc2)n1-c1cccc(C)c1C	5%	-18%	36	0.5	4.1	-21%
NC(=O)COc1ccccc1C1=NO[C@@](CC(=O)O)(C(=O)Nc2ccc3c(c2)OCCO3)C1	?	-6.1%	2	2.3	-11	3%
CCOC(=O)c1ccc(NC2SC(=O)N(Cc3cccc(C(=O)O)c3)C2=O)cc1 (centres undefined)	·	-1.6%	21	1.6	·	·

Quoted from the listing:
Value for CCOC(=O)c1[nH]c2ccccc2c1N=CN(C)C under TRPML1 ag: 0.0
Value for Cc1cc(C)cc(OC(=O)CCN2C(=O)c3ccccc3C2=O)c1 under TRPML1 ag: -0.7

Continuation:
SMILES	gsp ag	ClpP mod	TRPML1 inh	TRPML1 ag	Menin-MLL FL inh	gsp antagonist
CCN(CC)S(=O)(=O)c1ccc(C(=O)NCCCN=C2NS(=O)(=O)c3ccccc32)cc1	?	-0.9%	11	0.3	-0.5	20%
CCN(CC)CCCNC(=O)CSc1nc2c(c(C(F)(F)F)n1)CCc1ccccc1-2	31%	-5.8%	18	-0.1	-4.2	10%
COc1ccc(CNC(=O)CSc2nc(-c3ccccc3)cc(-c3cccs3)c2C#N)cc1	12%	?	0	1.6	6.5	-3%
CC(=C/c1ccccc1)/C=N/NC(=O)c1ccccn1	-3%	·	13	1.0	-0.8	-5%
CCOC(=O)C(=O)Nc1cc(Cl)ccc1C	-69%[inhibitor]	-1.3%	-11	-0.1	1.1	1%
CC1Cc2ccccc2N1C(=O)Cn1cc(C(F)(F)F)ccc1=O (centres undefined)	-9%	1.1%	-1	-0.2	·	·
CC(C)CNC(=O)CC(=O)NN=C1CCCC1	-1%	-1.0%	-26	0.1	3.0	14%
Cc1ccc(OCC(=O)N2CCCC(CCC(=O)N(C)CCc3ccccn3)C2)cc1 (centres undefined)	-76%[inhibitor]	0.0%	10	1.0	-0.6	-7%
COc1ccc(S(=O)(=O)N(CCCN2CCCC2=O)Cc2cc3c(C)ccc(C)c3[nH]c2=O)cc1	-19%	-19%	8	1.3	1.0	-5%
CCOC(=O)C1(CCOC)CCN(Cc2ccccc2-c2ccco2)CC1	-29%	·	31	0.6	8.6	-4%
Cc1ccc(C(=O)ONC(=O)c2ccc(Cl)cc2)cc1[N+](=O)[O-]	?	0.3%	-10	-0.4	0.5	-11%
COC(=O)C1(CCSC)NC(c2ccco2)C2C(=O)N(C)C(=O)C21 (centres undefined)	-4%	-1.9%	9	0.9	0.4	-7%
Cc1ccc(S(=O)(=O)NCCCC(=O)O)cc1	0%	·	17	-0.3	-0.7	2%
O=C(O)CN1CCN(Cc2ccc(F)cc2Cl)C1=O	5%	-2.9%	3	1.7	?	5%
CCn1cnc2cc(NC(=O)COc3ccc(C)cc3)ccc21	-11%[15.4 µM]	·	14	0.1	·	-14%
CC(=O)Nc1c(NC(C)(C)C)c2ccccc2oc1=O	-40%	0.3%	-12	-0.1	-1.9	7%
O=C(Cn1cnc2ccccc21)Nc1ccc(F)c(F)c1	0%	-0.7%	53	0.9	-9.0	1%
COc1ccc(Cc2nc3ccc(C(=O)N4CCC[C@H]4CO)cc3o2)cc1	-2%	-1.2%	-14	0.5	0.0	1%
CC1CCC(C(C)C)C(=O)/C1=C/c1ccc(N)cc1 (centres undefined)	27%	-0.9%	·	·	1.6	-32%
Cc1cccc(N/C(N)=N/c2nc(C)cc(=O)[nH]2)c1	-29%	·	5	0.0	-1.8	8%
CC(=O)c1ccc(S(=O)(=O)N2CCN(C(=O)c3ccc(-n4cncn4)c([N+](=O)[O-])c3)CC2)cc1	-1%	-0.2%	-17	-0.3	·	-8%
Cc1cc(C)n(NC(=S)NC2CCCCC2)c(=O)c1C#N	-19%	1.8%	-13	0.5	3.2	-20%
COc1cc(C2CC(=O)N(CC(=O)Nc3ccccc3F)c3ccccc3S2)cc(OC)c1OC (centres undefined)	·	-1.6%	-18	3.0	·	·
Cc1ccc(C(C)C)c(OCC(=O)Nc2ccc3c(c2)nc(CCNC(=O)c2ccco2)n3C)c1	·	-3.1%	37	2.1	·	·
COC(=O)c1cnn2c(C(F)(F)F)cc(-c3ccccc3)nc12	-3%	-14%	1	-0.2	1.7	-3%
The results go on.
SMILES	gsp ag	ClpP mod	TRPML1 inh	TRPML1 ag	Menin-MLL FL inh	gsp antagonist
O=c1c2ccccc2ncn1Cc1cccc2ccccc12	28%	-1.1%	-1	1.3	6.6	4%
CCCc1cc(NCC2CCCO2)n2c(nc3ccccc32)c1C#N (centres undefined)	0%	22%	6	3.0	3.9	-4%
COc1cc(OC)c(NC(=O)c2cc(C(C)=O)n3ccccc23)cc1Cl	·	-3.7%	-17	-1.0	·	·
Cn1nccc1NC(=O)CC1(CC(=O)O)CCCCC1	3%	1.0%	-2	3.0	2.1	5%
Cc1ccc2nc(N3C(=O)C(O)=C(C(=O)c4ccco4)C3c3cccs3)sc2c1 (centres undefined)	?	-4.1%	-20	1.5	?	-22%
c1ccc(N2CC3CCc4ccccc4C3=N2)cc1 (centres undefined)	10µM*	·	21	1.0	9.7	9%
CCOC(=O)C1=C(CC)OC(N)=C(C#N)C1c1cc(OC)ccc1OC (centres undefined)	-7%	-2.5%	6	-0.3	-1.4	-15%
CN1CCN(NC(=O)Nc2cc(Cl)cc(Cl)c2)CC1	-18%	0.5%	-8	0.1	3.5	5%
Cc1ccc(NC(=O)c2nc(S(C)(=O)=O)ncc2N(Cc2ccccc2)Cc2ccco2)c(C)c1	·	-2.1%	-9	1.7	·	·
O=C(Cn1cc(Cl)ccc1=O)c1ccc(Cl)cc1	38%	·	1	-0.2	4.1	2%
Cc1ccc([N+](=O)[O-])cc1NC(=O)Nc1onc(C)c1C	2%	-0.8%	30	-0.4	2.3	-4%
CC(C)(CN1CCCN(CC(C)(C)C(=O)O)C1=O)C(=O)O	-19%	-1.7%	1	0.1	·	·
COc1ccc(-c2cc(C(F)F)n3ncc(C(=O)n4ccnc4C)c3n2)cc1	-1%	?	-7	0.1	-4.8	1%
CCOC(=O)CC(NS(=O)(=O)Cc1ccccc1)c1ccc(C)cc1 (centres undefined)	-40%[inhibitor]	-0.6%	-6	0.2	8.5	0%
CCc1ccc(-n2nc(C)c3c(C)cc(=O)n(CC(=O)Nc4cc(Cl)ccc4OC)c32)cc1	·	-7.2%	10	-0.5	·	·
CCC(C)NC(=O)CN(c1ccc(Cl)c(Cl)c1)S(C)(=O)=O (centres undefined)	-3%	·	29	0.2	0.1	4%
Cc1ccc(S(=O)(=O)c2nc(-c3ccccc3Cl)oc2N2CCN(C)CC2)cc1	-2%[15.4 µM]	0.4%	8	1.5	·	-14%
CC1CCN(c2oc(-c3ccccc3F)nc2C#N)CC1	-16%	3.7%	-21	4.1	5.6	?
CC(=O)Nc1ccc(NC(=O)CSc2nc3ccccc3o2)cc1	-38%[inhibitor]	0.7%	12	-0.5	-1.3	-8%
Cc1ccc(C(=O)NCC(=O)OCC(=O)NC2CCCC(C)C2C)s1 (centres undefined)	16%[15.4 µM]	·	0	-1.2	-2.3	-6%
COc1ccc(-c2nc(CN3CCC(C(=O)NCc4ccccc4)CC3)c(C)o2)cc1OC	·	-8.1%	-9	-0.6	·	·
NS(=O)(=O)c1cccc(NC(=O)CSc2ncnc3ccccc23)c1	?	-5.4%	-8	0.2	4.8	-8%
Cc1ccccc1OCC(=O)N(Cc1cccs1)C1CCS(=O)(=O)C1 (centres undefined)	-35%[inhibitor]	-1.4%	-4	0.0	0.0	-10%
